# VACV Venus inh = qHTS for Stage-Specific Inhibitors of Vaccinia Orthopoxvirus: Venus Reporter Primary qHTS. Vaccinia virus Venus reporter expression, fluorescence. Potency, µM (highest dose often 36.5 µM), for the others: at the highest dose activity change, negative = inhibition, actives largely listed as inhibitors. 0.46% of 330,000 active. AID 720580, 2013; active means well fitted inhibition curve with a large enough effect; inconclusive means small, poorly fitted or top-dose-only effect; inactive means no such curve, though single readings can be large or run the other way; tested in A549 cells; further: nearly all actives have a fitted effect of over 30% in size; inactives centre near -10
# VACV mCherry inh = qHTS for Stage-Specific Inhibitors of Vaccinia Orthopoxvirus: mCherry Reporter Primary qHTS; Vaccinia virus mCherry reporter infection, fluorescence; about a quarter of the inactives have no number; Potency, µM (highest dose often 36.5 µM), for the others: at the top dose activity change, negative = inhibition, hits mostly inhibitors; 0.63% of 310,000 active; active = well fitted inhibition curve with a large enough effect; inconclusive = small, poorly fitted or top-dose-only effect; inactive = no such curve, though single readings can be large or run the other way; tested in A549 cells; further: nearly all actives have a fitted effect of over 35% in size; inactives centre near -10
# Numbers without * were called inactive; i = inactive; ? = inconclusive; . = no result given; & = joins results of further samples; [ ] = dose if it differs, or a comment. On the % scale 0 is the no-effect control and ±100 the full control effect; potency means the concentration at half of the fitted maximal effect. Outcome played no part in choosing rows; about 0.86% have a hit in one of these screens.
SMILES,VACV Venus inh,VACV mCherry inh
O=C(O)c1cc(NC(=O)c2ccc(Cl)c([N+](=O)[O-])c2)cc(C(=O)O)c1,-11%,i
CN(CC(=O)NC1CCCc2ccccc21)S(=O)(=O)c1cccs1 (configuration not stated),-16%,-12%
O=C(Nc1ccc2c(c1)OCO2)C1CCN(Cc2cnn(-c3ccccc3)c2-n2cccc2)CC1,?,.
O=c1c(=O)n(-c2ccccc2)ccn1Cc1cccc(C(F)(F)F)c1,-6%,-12%
Oc1ccc2ccccc2c1C=Nc1ccccc1,-13%,-15%
CCN(Cc1ccccc1)S(=O)(=O)c1ccc(C(=O)Nc2nnc(C3CC3)o2)cc1,-19%,-9%
CNC(=O)COc1ccc(NC(=O)c2ccc(-c3nn(C)c(=O)c4ccccc34)cc2)cc1,5%,6%
CCCCNC(=O)CN1C(=O)c2cccnc2Sc2ccccc21,8%,10%
Cc1ccc(S(=O)(=O)N2[C@@H](c3cccc(Cl)c3)C(C(=O)O)=CC[C@H]2c2ccc3c(c2)OCO3)cc1,-9%,i
O=C(CCC(=O)N(CC(=O)NC1CCCC1)c1ccc(F)cc1)Nc1nccs1,-1%,-10%
COc1ccc(CN2CCNC(=O)C2CC(=O)N(C)Cc2ccncn2)c(OC)c1 (configuration not stated),3%,4%
CCOc1ccc(CC(=O)OCN2C(=O)c3ccccc3C2=O)cc1,-16%,i
COc1ccccc1CNC(=O)c1ccc(NS(=O)(=O)c2c(C)noc2C)cc1,-16%,-18%
O=C(C[n+]1ccc(C(=O)NCCCO)cc1)c1cccc(Br)c1,-6%,i
NC(=O)CC(NC(=O)Cc1ccc(Cl)cc1)c1ccc(NCCN2CCOCC2)c([N+](=O)[O-])c1 (configuration not stated),-20%,i
Cc1ccc(OC(=O)c2cccc(C(=O)Oc3ccc(C)cc3)n2)cc1,-9%,-5%
COc1cccc(-c2noc(C(C)n3nc(C)c([N+](=O)[O-])c3C)n2)c1 (configuration not stated),-8%,-9%
CCOC(=O)Nc1ccc2c(c1)C(=NO)c1ccccc1-2,?,-26%
CCOC(=O)CSc1nc2ccccc2n2cnnc12,-6%,-10%
CCC(=O)c1ccc(N2CCN(C(=O)Cc3ccccc3)CC2)c(F)c1,-14%,-18%
CCN1CCc2nc(N)oc2CC1,-14%&-12%,-7%
COc1ccc2c(c1)CCCC2=O,0%,-10%
CN(C)c1ccnc(-c2cccc(NS(C)(=O)=O)c2)n1,-13%,-15%
Cc1nc2cccnc2n1C1CCN(S(C)(=O)=O)CC1,-6%,-10%
CCc1ccc(-c2nc(NC(=O)c3ccc(OCC(=O)Nc4ccc(F)cc4)c(OC)c3)sc2C)cc1,-9%,i
# (listing goes on)
SMILES,VACV Venus inh,VACV mCherry inh
CC1(C)N([O])C(c2ccc(C(=O)O)cc2)=[N+]([O-])C1(C)C,-9%,i
Cc1ccc(CNC(=O)C(Cc2ccccc2)NS(=O)(=O)c2ccc(Br)s2)cc1 (configuration not stated),-16%,-26%
Cc1ccc(-n2nc3c(N4CCCC(C(=O)NCc5ccccc5C)C4)nnc(C)c3c2C)cc1 (configuration not stated),?,?
COc1cn(CC(=O)Nc2ccccc2)c(CN2CCCCC2)cc1=O,-4%,-6%
COc1ccc(Cl)cc1NC(=O)CSc1nc(=O)n(Cc2ccco2)c2c1CCC2,-20%,-3%
CC1CN(S(=O)(=O)c2ccc(C(=O)N3CCc4ccccc43)cc2)CC(C)O1 (configuration not stated),-5%,-12%
COc1ccc(-n2nc(C(=O)NCC(=O)N3CCN(c4ccccn4)CC3)c3ccccc3c2=O)cc1OC,0%,0%
O=C(Cn1cc(SCc2cccc(Cl)c2)c2ccccc21)N1CCOCC1,-12%&-2%,-12%&-1%
Cc1sc2ncnc(SCC(=O)N3c4ccccc4Sc4ccc(Cl)cc43)c2c1C,-7%,-18%
CCc1ccc(CNC(=O)C2CCC(=O)N(CCc3ccc(Cl)cc3)C2)nc1 (configuration not stated),-24%,-4%
CSc1nc(C)c(Cc2ccccc2)c(=O)[nH]1,-16%,i
Cc1ccc(CO)cc1Nc1ncnc2onc(-c3ccc(F)cc3)c12,0%,-7%
COc1ccccc1OCCSc1nc2ccccc2n1CC(=O)O,-1%,i
O=C(CCc1ccccc1)Nc1ccc(S(=O)(=O)NC2=NCCCCC2)cc1,-8%,-8%
CCOC(=O)CSc1nc2cc(OC)c(OC)cc2cc1C#N,9%,36%[activator]
C=CCn1c(C)nnc1SCC(=O)N1c2ccccc2NC(=O)C1(C)C,-17%,i
CCOc1ccc(NC(=O)Nc2cnccn2)cc1,-11%,i
Cc1noc(C)c1C(=O)N1CCC(CO)(Cc2ccccc2)CC1,-3%,-6%
Cc1c(OCC(=O)N[C@@H](CSCc2ccccc2)C(=O)O)ccc2c3c(c(=O)oc12)CCC3,5%,-3%
O=C(NCCc1csc(-c2cccc(F)c2)n1)c1ccccc1C(F)(F)F,-6%,-11%
O=C(CSc1nc2ccccc2s1)NC1CCCc2ccccc21 (configuration not stated),-16%,i
CC1(C(=O)NS(=O)(=O)Cc2cccc(Cl)c2)CCN1C(=O)c1ccc(C2CCCCC2)cc1 (configuration not stated),-4%,29%
CC(=O)c1ccc(NC(=O)c2cnn(-c3cccc(F)c3)c2-n2cccc2)cc1,-12%,-7%
O=C(O)c1ccc(/C=C2\COc3ccccc3C2=O)cc1,-4%,-16%
COC(=O)c1sccc1NC(=S)Nc1ccc(C)cc1,-18%,i
# (cont.)
SMILES,VACV Venus inh,VACV mCherry inh
CCOC(=O)c1ccc(NC(=O)C2CCCN(c3ncnc4onc(-c5ccc(F)cc5)c34)C2)cc1 (configuration not stated),-13%,-17%
CC(C)Cc1nc2oc3c(N4CCN(CCO)CC4)ncnc3c2c2c1CCCC2,-8%,i
COc1cccc2cc(-c3nc(Nc4cccc(C)c4)sc3C)c(=O)oc12,-9%,-13%
COC(=O)c1ccccc1NC(=O)CSc1nnnn1CC(=O)O,-5%,i
CC(C)Cn1c(NCCO)nc2ccccc21,-14%,i
CN(C)c1ccc2c3c(ccc(N(C)C)c13)COC2,-14%,i
CC(C)CNC(=O)c1ccccc1NC(=O)c1ccccc1N(C)S(C)(=O)=O,-12%,i
CC(=O)N1CCCc2cc(S(=O)(=O)N3CCC(C(=O)NC4CCCCC4)CC3)ccc21,-7%,-10%
CCC(=O)Nc1cccc(-c2nnc(-c3ccccc3)o2)c1,-20%,-12%
COc1ccc(/C=C/c2c(-c3ccc(OC)cc3)oc3ccc(-c4ccc(OC)cc4)cc23)cc1,-1%,-22%
COc1ccccc1NC(=O)CCSc1nc(C)cc(C)n1,-4%,-11%
COc1ccc(/C=C(\NC(=O)c2ccc(C)cc2)C(=O)NCCCn2ccnc2)cc1OC,0%,-15%
CC(=O)Nc1cc(-c2ccc(N)nc2)cn2c(-c3cccc(C(F)(F)F)c3)cnc12,-8%,-9%
COc1ccc(CNC(=O)C2CCCN(C(=O)Nc3ccc(OC)cc3)C2)cc1 (configuration not stated),-9%,2%
COc1ccc(CCNC(=O)CC2SC(=NCc3ccccc3OC)NC2=O)cc1 (configuration not stated),-13%,i
COc1ccc(N2CCN(C(=O)c3ccc(SC)cc3OC)CC2)cc1,-16%,?
COc1ccc(NC(=O)CN(c2cc(C)cc(C)c2)S(=O)(=O)c2c(C)noc2C)cc1,-1%,20%
COc1ccc(C2CC(c3ccccc3)=NN2C(=O)CSc2nnnn2-c2cccc(C)c2)cc1 (configuration not stated),-4%,-5%
COc1ccc(OC)c(CNC(=O)C(C)n2c(C)c3cnn(-c4ccccc4)c(=O)c3c2C)c1 (configuration not stated),-8%,-3%
COc1cccc(C(C(=O)NC2CCCCC2)N(CCN2CCOCC2)C(=O)C2COc3ccccc3O2)c1 (configuration not stated),-14%,4%
CCOC(=O)c1c(C2CC2)csc1NC(C)=O,-10%,-19%
CSc1c(-c2ccccn2)c(N)nn1C(=O)C1CCC1,-15%,i
CC(=O)c1sc2nc(-c3cccs3)cc(C(F)(F)F)c2c1N,16%,.
O=C1c2ccccc2C(O)N1Cc1ccco1 (configuration not stated),-5%,i
Cc1cc(NC(=O)CSc2n[nH]c(CC(C)C)n2)no1,-9%,i
# Later entries:
SMILES,VACV Venus inh,VACV mCherry inh
Cc1ccc(CSc2ccc3nnc(-c4cccnc4)n3n2)cc1,-14%,-12%
O=C(O)c1ccc(S(=O)(=O)c2ccc3c(c2)C(=O)N(Cc2ccco2)C3=O)cc1,-4%,-11%
Cc1ccc(C(C2=C(O)CC(C)(C)CC2=O)C2C(=O)CC(C)(C)CC2=O)o1 (configuration not stated),-6%,i
O=C(CSc1nccc(=O)[nH]1)Nc1ccc(F)c(Cl)c1,-1%,-7%
CCCNC(=O)C1(C)CCCN(CCC(=O)c2ccccc2)C1 (configuration not stated),-3%,49%[activator]
COc1ccccc1C(=O)NC(CCSC)C(=O)OC(C)C(N)=O (configuration not stated),-3%,i
CSc1cccc(NC(=O)CCCOc2ccc(Cl)cc2C)c1,-10%,-18%
Cc1cccc(NC(=O)C2CCN(S(=O)(=O)c3c(C)nn(C)c3C)CC2)n1,-9%,i
COC(=O)c1ccccc1N(C)S(C)(=O)=O,-14%,-19%
CCOC(=O)c1c(S(=O)(=O)NCC(=O)Nc2cccc(SC)c2)c(C)n(C)c1C,-3%,-12%
COc1ccc(/C=C2\SC(=O)N(CCC(=O)Nc3ccc(S(=O)(=O)Nc4nccs4)cc3)C2=O)cc1,0%,-13%
Cc1c(Cl)cccc1NC(=O)CCS(=O)(=O)c1cccc2nsnc12,-7%,-19%
Cc1ccc(NC(=O)CC2S/C(=N/c3nccs3)N(C)C2=O)c(C)c1 (configuration not stated),0%,-15%
COc1ccc(-n2cc(-c3ccc4c(c3)OCO4)n(CC(=O)Nc3cccc(C)c3)c2=O)cc1,-14%,-9%

# In the list so far, these have an NH in an aromatic ring.
SMILES,VACV Venus inh,VACV mCherry inh
CSc1nc(C)c(Cc2ccccc2)c(=O)[nH]1,-16%,i
Cc1cc(NC(=O)CSc2n[nH]c(CC(C)C)n2)no1,-9%,i
O=C(CSc1nccc(=O)[nH]1)Nc1ccc(F)c(Cl)c1,-1%,-7%

# Grouped by structure: the compounds so far containing an aryl thioether with sulfur outside any ring.
SMILES,VACV Venus inh,VACV mCherry inh
CCOC(=O)CSc1nc2ccccc2n2cnnc12,-6%,-10%
COc1ccc(Cl)cc1NC(=O)CSc1nc(=O)n(Cc2ccco2)c2c1CCC2,-20%,-3%
O=C(Cn1cc(SCc2cccc(Cl)c2)c2ccccc21)N1CCOCC1,-12%&-2%,-12%&-1%
Cc1sc2ncnc(SCC(=O)N3c4ccccc4Sc4ccc(Cl)cc43)c2c1C,-7%,-18%
CSc1nc(C)c(Cc2ccccc2)c(=O)[nH]1,-16%,i
COc1ccccc1OCCSc1nc2ccccc2n1CC(=O)O,-1%,i
CCOC(=O)CSc1nc2cc(OC)c(OC)cc2cc1C#N,9%,36%[activator]
C=CCn1c(C)nnc1SCC(=O)N1c2ccccc2NC(=O)C1(C)C,-17%,i
O=C(CSc1nc2ccccc2s1)NC1CCCc2ccccc21 (configuration not stated),-16%,i
COC(=O)c1ccccc1NC(=O)CSc1nnnn1CC(=O)O,-5%,i
COc1ccccc1NC(=O)CCSc1nc(C)cc(C)n1,-4%,-11%
COc1ccc(N2CCN(C(=O)c3ccc(SC)cc3OC)CC2)cc1,-16%,?
COc1ccc(C2CC(c3ccccc3)=NN2C(=O)CSc2nnnn2-c2cccc(C)c2)cc1 (configuration not stated),-4%,-5%
CSc1c(-c2ccccn2)c(N)nn1C(=O)C1CCC1,-15%,i
Cc1cc(NC(=O)CSc2n[nH]c(CC(C)C)n2)no1,-9%,i
Cc1ccc(CSc2ccc3nnc(-c4cccnc4)n3n2)cc1,-14%,-12%
O=C(CSc1nccc(=O)[nH]1)Nc1ccc(F)c(Cl)c1,-1%,-7%
CSc1cccc(NC(=O)CCCOc2ccc(Cl)cc2C)c1,-10%,-18%
CCOC(=O)c1c(S(=O)(=O)NCC(=O)Nc2cccc(SC)c2)c(C)n(C)c1C,-3%,-12%
